Assay outcomes as filed in PubChem.
HPGD block: blocks human HPGD enzyme activity | P15428 | purified HPGD, NADH fluorescence kinetic, PGE2 substrate | Potency, µM, for the others: top-dose activity change, negative = inhibition, hits mostly inhibitors | hit rate 4.3% among 150,000 | AID 894; active = well fitted inhibition curve with a large enough effect (not every such curve was filed as active); inconclusive = small, poorly fitted or top-dose-only effect, or another doubt; inactive = no such curve, though single readings can be large or run the other way;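 also: top concentration of the series not given in the record; plate controls included wells without enzyme; inactives centre near -10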
Target sequence (P15428 whole entry, looked up): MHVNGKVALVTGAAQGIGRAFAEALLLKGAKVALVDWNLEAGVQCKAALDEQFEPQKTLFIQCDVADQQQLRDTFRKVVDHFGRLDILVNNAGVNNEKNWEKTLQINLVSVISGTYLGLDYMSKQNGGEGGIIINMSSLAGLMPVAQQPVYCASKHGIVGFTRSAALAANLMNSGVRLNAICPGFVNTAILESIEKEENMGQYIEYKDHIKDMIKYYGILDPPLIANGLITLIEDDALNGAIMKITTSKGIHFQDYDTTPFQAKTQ
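NADH formation kinetics: reaction with 30 uM PGE2 and 1 mM NAD+ (final), 20 nM enzyme, Tris-HCl pH 8 with Tween 20, after 15 min compound preincubation at room temperature. Fluorescence change, last versus first of five reads.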
* hit, by the source's call; & = joins results of further samples. % is scaled to controls: 0 for no effect and ±100 for the full control effect; potency is read from the fitted curve at half-maximal effect. An excerpt; rates above refer to the full screens.

C/C=C/Cn1c(SCc2ccc(C)cc2)nc2c1c(=O)[nH]c(=O)n2C was read as HPGD block 14.1µM*.
For O=c1ccc(Cl)cn1Cc1ccccc1F the results were HPGD block -19.1%.
Screening CCOC(=O)c1c(NC(=O)c2cc(CC(C)C)on2)sc(C(C)=O)c1C returned HPGD block inconclusive.
For CCCSc1nnc2n(C)c(=O)c3c4c(sc3n12)CCC4 the results were HPGD block -5.2%.
COc1cc(/C(C#N)=C/c2cccc3ccccc23)c([N+](=O)[O-])cc1OC was read as HPGD block -1.8%.
Screening COc1ccc(NC(=S)N2CCNC(=O)C2CC(=O)Nc2ccc(C)cc2)cc1 (stereo not drawn) returned HPGD block -13.5%.
For CCn1c(CNC(=O)COc2ccc(C(C)C)cc2)nnc1SCC(=O)Nc1ccccc1F the results were HPGD block -8.4%.
CC(CCc1ccccc1)NC(=O)c1ccc(NC(=O)c2cccc(Br)c2)cc1 (stereo not drawn) was read as HPGD block -13.7%.
C=CCNC(=O)c1cccc(Br)c1 was read as HPGD block -16.8%.
CC1CC(C)(C)N(C(=O)CN2C(=O)c3ccccc3C2=O)c2ccccc21 (stereo not drawn) was read as HPGD block -7.1%.
Screening O=C(CSc1nnc(-c2ccccc2)c(-c2ccccc2)n1)N1CCc2ccccc21 returned HPGD block -21.7%.
`N=c1ccn(Cc2ccc(Cl)cc2Cl)cc1` gave HPGD block -9.0%.
O=C(COc1ccc(S(=O)(=O)N2CCCC2)cc1Cl)Nc1ccc2c(c1)OCO2 was read as HPGD block -9.4%.
`O=C(CC1CCCCC1)N1CCC(c2nc(-c3ccc(S(=O)(=O)N4CCCC4)cc3)no2)CC1` gave HPGD block -23.4%.
For O=C(c1ccccc1Sc1ccc([N+](=O)[O-])cc1)N1CCCCC1 the results were HPGD block -6.9%.
For Cc1ccc(-c2cc(C(=O)Nc3sc4c(c3C(=O)NCc3ccco3)CCC4)[nH]n2)c(O)c1 the results were HPGD block inconclusive.
CC(c1ccco1)N(C(=O)c1ccccc1NS(=O)(=O)c1cccc([N+](=O)[O-])c1)c1ccccn1 (stereo not drawn) was read as HPGD block -1.4%.
N=C(N)[C@H](N=Nc1ccccc1)C(N)=O was read as HPGD block 0.3%.
`S=C(NCc1cccnc1)Nc1ccc(Cl)cc1` gave HPGD block -3.9%.
`CC(C)(Oc1ccc(Cl)cc1)C(=O)NCCCn1ccnc1` gave HPGD block 0.1%.
Screening Cc1cc(NO)nc(-c2ccc(Br)cc2)n1 returned HPGD block -10.2%.
For CCOc1nc(-c2ccc(OC)cc2)ccc1-c1noc(-c2cc(OC)c(OC)c(OC)c2)n1 the results were HPGD block inconclusive.
Cc1cccc(NC(=O)Cn2cnc3ccccc3c2=O)c1C was read as HPGD block 3.9%.
Screening COc1ccc(Nc2nc(Cl)nc(NCCO)n2)cc1 returned HPGD block 1.7%.
OCCn1c(CSc2nnc(-c3ccco3)n2-c2ccccc2)nc2ccc(Cl)cc21 was read as HPGD block inconclusive.
Cc1cc(S(=O)(=O)NCCN(C)C)c(C)s1 was read as HPGD block -7.1%.
`O=C(C[n+]1ccc2ccccc2c1)Nc1cc(C(F)(F)F)ccc1Cl` gave HPGD block -4.8%.
Screening NS(=O)(=O)c1cccc(NC(=O)Cn2cnc3ccccc3c2=O)c1 returned HPGD block -3.7%.
Screening COc1cc(Cl)c(S(=O)(=O)N2CCN(Cc3ccc4c(c3)OCO4)CC2)cc1Cl returned HPGD block -3.5%.
For O=C(OCC#CCSc1nnc(-c2ccccc2)o1)c1cc2ccccc2o1 the results were HPGD block -18.5%.

Reprinted from the part before: 7 entries, followed by the next part.
Screening COc1ccc(Nc2nc(Cl)nc(NCCO)n2)cc1 returned HPGD block 1.7%.
OCCn1c(CSc2nnc(-c3ccco3)n2-c2ccccc2)nc2ccc(Cl)cc21 was read as HPGD block inconclusive.
Cc1cc(S(=O)(=O)NCCN(C)C)c(C)s1 was read as HPGD block -7.1%.
`O=C(C[n+]1ccc2ccccc2c1)Nc1cc(C(F)(F)F)ccc1Cl` gave HPGD block -4.8%.
Screening NS(=O)(=O)c1cccc(NC(=O)Cn2cnc3ccccc3c2=O)c1 returned HPGD block -3.7%.
Screening COc1cc(Cl)c(S(=O)(=O)N2CCN(Cc3ccc4c(c3)OCO4)CC2)cc1Cl returned HPGD block -3.5%.
For O=C(OCC#CCSc1nnc(-c2ccccc2)o1)c1cc2ccccc2o1 the results were HPGD block -18.5%.
Screening CC/C=C\C/C=C\C/C=C\C/C=C\C=C\C(O)CCCC(=O)O (stereo not drawn) returned HPGD block -4.7%.
Screening Cc1ccc(C)c(NC(=S)NCC(c2cccnc2)N2CCOCC2)c1 (stereo not drawn) returned HPGD block -5.9%.
For Cc1ccccc1NC(=O)CC1S/C(=N/c2nccs2)N(C)C1=O (stereo not drawn) the results were HPGD block 0.7%.
Cc1cc(CCC(=O)O)c(C)cc1CCC(=O)O was read as HPGD block 2.2%.
`Cc1ccnc(NS(=O)(=O)c2ccc(NS(=O)(=O)c3cccs3)cc2)n1` gave HPGD block 8.3%.
For CCSC(=O)CCCCCCCCCCCO the results were HPGD block -5.2%.
COc1ccc(/C=C\C(=O)c2c(O)ccc3c(C)cc(=O)oc23)cc1 was read as HPGD block inconclusive.
Screening Cc1ccccc1Cn1nc(C)c(NC(=O)C2c3ccccc3Oc3ccccc32)c1C returned HPGD block -4.3%.
`CC(C)(C)NC(=O)c1ccc2c(c1)N(CC(=O)N1CCN(c3ccccc3F)CC1)C(=O)C(C)(C)O2` gave HPGD block -6.3%.
CNc1ncnc2c1ncn2[C@@H]1O[C@H](CO)[C@H](O)[C@H]1O was read as HPGD block 2.9%.
Screening COC(=O)c1[nH]c2cccc(OC)c2c1NC(=O)CN1CC2(C)CC1CC(C)(C)C2 (stereo not drawn) returned HPGD block -16.8%.
O=C(CSc1nc2ccccc2[nH]1)c1ccco1 was read as HPGD block -6.3%.
CCc1cc(-c2n[nH]c(=S)n2Cc2ccccc2)cs1 was read as HPGD block 14.1µM*.
For N/C(=N\c1nc2ccccc2o1)NC(=O)c1ccc(Cl)cc1 the results were HPGD block -19.2%.
`CC(=O)Nc1ccc(C(=O)CSc2nnc(Cc3ccccc3)o2)cc1` gave HPGD block -21.3%.
COC(=O)c1c(NC(=O)CSc2nc3ccccc3c(=O)n2-c2ccccc2)sc(C)c1C was read as HPGD block -19.0%.
NC(=O)CSc1nc2c(c(=O)n1-c1ccccc1)C1(CCCCC1)Cc1ccccc1-2 was read as HPGD block -1.2%.
NCCN was read as HPGD block -0.2%.
For COC(=O)Cc1c(C)c2cc(Cl)c(OC(=O)c3ccco3)cc2oc1=O the results were HPGD block 5.6%.
For COc1ccc(-c2noc(CN(C(=O)c3cccs3)C(C)C)n2)cc1 the results were HPGD block -23.6%.
Screening O=c1cc(-c2ccc(F)cc2)[nH][nH]1 returned HPGD block -7.8%.
For Cc1cccc(-c2n[nH]c(=S)n2Cc2ccccc2)c1 the results were HPGD block inconclusive.
CC(=O)c1ccc(NC(=O)CCC(=O)OCC(F)(F)C(F)F)cc1 was read as HPGD block -9.3%.
`CC(NC(=O)c1ccco1)C1CCCO1` (stereo not drawn) gave HPGD block -10.0%.
Screening CC(C)COP(=O)(c1ccc(N(C)C)cc1)C(Nc1ccccc1)c1ccccc1 (stereo not drawn) returned HPGD block -21.5%.
Cc1ccccc1NC(=O)Cn1cnc2c(oc3nc4c(cc32)COC(C)(C)C4)c1=O was read as HPGD block -10.3%.
Screening O=C(CSc1ccccc1C(=O)O)Nc1cccc(C(=O)O)c1 returned HPGD block -9.1%.
Cc1cccc(-c2nnc(SCCOc3ccc4c(C)cc(=O)oc4c3)o2)c1 was read as HPGD block inconclusive.
For CC(C)c1nc2sc3c(=O)n(N)cnc3c2c2c1COC(C)(C)C2 the results were HPGD block inconclusive.
CCC1(C(=O)c2ccccc2)C2c3cc(Br)ccc3OC(=O)C21C(=O)N1CCOCC1 (stereo not drawn) was read as HPGD block -13.0%.
`COc1ccc2nc(/C=N/NC(=O)[C@H](CCSC)NC(=O)OC(C)(C)C)ccc2c1` gave HPGD block inconclusive.
For CC(C)CCNC(=O)c1ccc2c(c1)ncn2C1CCCCC1 the results were HPGD block inconclusive.
Screening Cc1nn(C)cc1C1C(C#N)=C(N)N(c2ccc(F)c([N+](=O)[O-])c2)C2=C1C(=O)CCC2 (stereo not drawn) returned HPGD block -15.6%.
Screening Cc1nnc2n(-c3ccccc3)c(=O)c3c4c(sc3n12)COC(C)(C)C4 returned HPGD block -18.2%.
CCCCOc1ccc(NC(=O)C(=O)NCCC2=CCCCC2)cc1 was read as HPGD block -8.7%.
`O=C(NNc1nc(-c2ccccc2)cs1)c1ccco1` gave HPGD block -13.3%.
CCN(CC)S(=O)(=O)c1ccc(C(=O)NNC(=O)c2cccs2)cc1 was read as HPGD block -2.2%.
Screening O=C(NCc1ccccc1)c1c(F)c(F)c(F)c(F)c1F returned HPGD block -16.6%.
For O=C(CCSCc1cccc(Cl)c1)NC1CCCC1 the results were HPGD block 14.1µM*.
Screening O=C(CCc1nc2ccccc2s1)c1ccccc1 returned HPGD block inconclusive.
`Oc1cc(O)c2c(c1)O[C@H](c1ccc(O)c(O)c1)[C@@H](O)C2` gave HPGD block -7.9%&-6.1%.
`CC1CCC(C(=O)NC(C(=O)NCCCN2CCOCC2)C(C)C)CC1` (stereo not drawn) gave HPGD block -1.6%.
COCCNC(=O)c1ccc(Cc2nc3ccccc3[nH]2)cc1 was read as HPGD block -10.5%.
For COc1ccc(OC)c(C2CC(=O)N3CN(c4cccc(Cl)c4)CSC3=C2C#N)c1 (stereo not drawn) the results were HPGD block -20.2%.
CNC(=O)CN(c1ccc2c(c1)OCCO2)S(C)(=O)=O was read as HPGD block -7.1%.
`Cc1cccc(N2CCN(C(=O)c3ccncc3)CC2)c1C` gave HPGD block 2.3%.
O=C(NCc1ccco1)C1CCCN(S(=O)(=O)c2ccc(-n3cnnn3)cc2)C1 (stereo not drawn) was read as HPGD block -13.6%.
`COC(=O)C1=C(C)N=c2s/c(=C/c3cccs3)c(=O)n2C1c1ccc(F)cc1` (stereo not drawn) gave HPGD block -20.6%.
For N#Cc1nc(COc2ccccc2)oc1NCCCn1ccnc1 the results were HPGD block -2.6%.
Cc1ccc(S(=O)(=O)N2CCCOC2CNC(=O)C(=O)NCc2cccs2)cc1 (stereo not drawn) was read as HPGD block -7.1%.
For O=C1c2cccnc2C(O)N1Cc1ccccc1 (stereo not drawn) the results were HPGD block 0.2%.
`COC(=O)C1=C(C)Nc2ncnn2C1c1ccc(C)o1` (stereo not drawn) gave HPGD block 4.5%.
Cc1cc(C(=O)Nc2cccc([N+](=O)[O-])c2)c(C)o1 was read as HPGD block 0.7%.
`Brc1ccc(-c2nn3c(-c4ccccn4)nnc3s2)o1` gave HPGD block -2.3%.
For CCCN1C(=O)c2cc(C(=O)NC3CCCC3)ccc2C1O (stereo not drawn) the results were HPGD block -14.0%.
CC(C)C(=O)NC(=O)[C@@H]1CCCN1C(=O)/C=C/c1ccccc1 was read as HPGD block -5.5%.
Screening Cc1cc(=O)[nH]c(Nc2cccc(C(F)(F)F)c2)n1 returned HPGD block -10.4%.
O=C(c1cccnc1)N1CCN(c2ccc(Cl)cc2)CC1 was read as HPGD block -9.3%.
Screening CC(C)NS(=O)(=O)c1ccc(NC(=O)NC2CCCCC2)cc1 returned HPGD block -9.2%.
Screening C#C[C@]1(O)CC[C@H]2C3CCC4=Cc5oncc5CC4(C)C3CCC21C (stereo partly drawn) returned HPGD block -10.5%.

In the list so far, two have a tert-butyl group.
`CC(C)(C)NC(=O)c1ccc2c(c1)N(CC(=O)N1CCN(c3ccccc3F)CC1)C(=O)C(C)(C)O2` gave HPGD block -6.3%.
`COc1ccc2nc(/C=N/NC(=O)[C@H](CCSC)NC(=O)OC(C)(C)C)ccc2c1` gave HPGD block inconclusive.

(listing goes on)
For Cc1c(NC(=S)/C=C2\N(C)c3ccccc3C2(C)C)c(=O)n(-c2ccccc2)n1C the results were HPGD block -17.3%.
Screening CN(Cc1ccccc1)c1nc2c(c(=O)[nH]c(=O)n2C)n1CCCc1ccccc1 returned HPGD block -7.4%.
`CC(C)CNS(=O)(=O)c1ccccc1C(=O)N1CCCCC1` gave HPGD block 4.2%.
CCCNC(=O)CN(C)C(=O)c1n[nH]c2ccccc12 was read as HPGD block -9.3%.
COc1ccc(-c2cc(C(=O)O)no2)cc1 was read as HPGD block 14.1µM*.
`CCOC(=O)C(Cc1ccc(NC(=O)/C(=C/c2ccccc2)NC(=O)c2ccccc2)cc1)N1C(=O)c2ccccc2C1=O` (stereo not drawn) gave HPGD block -14.4%.
`CN(C)CCNC(=O)c1ccc(COCC(F)(F)F)cc1` gave HPGD block -8.2%.
`O=C(Nc1ccc(Cc2ccc(NC(=O)N3CCOCC3)cc2)cc1)N1CCOCC1` gave HPGD block -11.8%.
Screening Cc1cccc(C)c1-n1c(C)cc(/C=N\Nc2ccc([N+](=O)[O-])cn2)c1C returned HPGD block -19.8%.
Screening COCC(=O)Nc1cc(OC)ccc1OC returned HPGD block -0.7%.
For COC(=O)c1cc(NC(=O)Cn2c(=O)cnc3ccccc32)cc(C(=O)OC)c1 the results were HPGD block -18.6%.
For CN(C)c1ccc(C(CNS(=O)(=O)c2ccc(F)cc2)c2c[nH]c3ccccc23)cc1 (stereo not drawn) the results were HPGD block -6.4%.

Structures shown so far that contain a COOH group:
Screening CC/C=C\C/C=C\C/C=C\C/C=C\C=C\C(O)CCCC(=O)O (stereo not drawn) returned HPGD block -4.7%.
Cc1cc(CCC(=O)O)c(C)cc1CCC(=O)O was read as HPGD block 2.2%.
Screening O=C(CSc1ccccc1C(=O)O)Nc1cccc(C(=O)O)c1 returned HPGD block -9.1%.
COc1ccc(-c2cc(C(=O)O)no2)cc1 was read as HPGD block 14.1µM*.
